Compound activity: PubChem, National Center for Advancing Translational Sciences (NCATS)
ClpP mod: qHTS Assay for Activators of ClpP; purified B. subtilis ClpP, FRET peptide cleavage, 20 min; Potency, µM (titrated, usually from 57.5 µM), inactives show at the highest dose activity change, negative = active; 1.9% of 340,000 active; AID 651965, 2013; active = well fitted falling curve with a large enough effect; inconclusive = small, poorly fitted or top-dose-only effect; inactive = no such curve, though single readings can be large or run the other way; further: potency means the concentration at half of the fitted maximal effect; the source files actives as falling curves though it sought activators and does not explain the sign; nearly all actives have a fitted effect of over 65% in size; many hits overshoot -100%
Target sequence (P80244 whole entry, looked up): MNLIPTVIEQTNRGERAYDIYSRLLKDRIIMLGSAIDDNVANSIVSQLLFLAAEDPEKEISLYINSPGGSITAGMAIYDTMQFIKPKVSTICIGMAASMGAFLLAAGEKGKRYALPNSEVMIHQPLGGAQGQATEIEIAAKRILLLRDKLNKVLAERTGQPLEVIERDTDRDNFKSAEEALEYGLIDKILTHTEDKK
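ClpP 10 microg/mL final, pH 8 Tris/KCl buffer with BSA, glycerol, Tween-20; compound pinned in; FRET-FV substrate; RT 20 min; Ex320/Em430; ΔFRET vs ADEP 5.8 microM, DMSO, no enzyme.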
Sfp inh: Sfp phosphopantetheinyl transferase inhibition | Q9F4F7 | Biochemical Sfp PPTase activity, qHTS | Potency, µM, inactives show max response, negative = inhibition, actives largely listed as inhibitors | 3.5% of 310,000 active; active means well fitted inhibition curve with a large enough effect; inconclusive means small, poorly fitted or top-dose-only effect, or another doubt; inactive means no such curve, though single readings can be large or run the other way;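 further: the enzyme is Sfp with the accession as filed and its product quenches rhodamine fluorescence; potency means the concentration at half of the fitted maximal effect; 0% = enzyme reaction without inhibitor and -100% = no enzyme wells; top concentration of the series not given in the record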
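Fluorescence-quenching assay with 15 nM Sfp, 5 uM rhodamine-CoA and 12.5 uM BHQ-2-labelled ybbR peptide in pH 7.6 Hepes/MgCl2 buffer. Enzyme was pre-incubated with compound for 15 min at room temperature. Rate was taken from the 30-min fluorescence change (525/598 nm).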
PINK1 expr mod: modulators of PINK1 expression | Potency, µM (top dose mostly 76.6 µM), for the others: at the highest dose activation (PINK1 increase), usual class: activators | PINK1 immunofluorescence, high-content cytometry, 24 h | AID 624263 | 0.2% of 410,000 active; active = well fitted activation curve with a large enough effect; inconclusive = small, poorly fitted or top-dose-only effect; inactive = flat fitted curve, though single readings scatter; cell line not stated here;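 further: potency means the concentration at half of the fitted maximal effect; % of control where 0% means no effect; nearly all actives have a fitted effect of over 65% in size; a mitochondrial uncoupler was the plate control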
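Stable cell line, 250 cells/well, 12 h attachment; compounds pinned at 5 concentrations, 24 h; CCCP control. Fixed with nuclear dye, primary antibodies 12 h at 10 degrees C, secondary plus cell stain; laser-scanning cytometer read.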
Menin-MLL FL inh: inhibitors of human menin-MLL interaction, wild-type MLL peptide; Fluorescence polarization, fluorescein-MLL peptide displacement from menin; FP activity change, % at 61.4 µM; 290,000 tested, under 10 active; AID 1766; inconclusive = falling polarisation curve, or a change in total fluorescence; inactive = total fluorescence flat and polarisation flat or rising; no compound was filed as active; the % refers to the polarisation; negative = inhibition;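 further: % of control where 0% means no effect; inhibitors lower the polarisation; unlabelled MLL peptide was the positive control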
TRPML1 inh: human mucolipin-1 channel inhibition | Q9GZU1 | TRPML1-inducible cells, Ca2+ dye fluorescence, FDSS; active compounds read low; inhibition of EC80 agonist-evoked calcium signal | activity change, negative = inhibition, % (test concentration not listed) | 0.02% of 390,000 active; in the data active means activity change below about -50%; inconclusive means about -30% to -50%; inactive means above about -30%;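 further: stimulus is agonist 54-4 at its EC80 concentration; on the % scale 0 is the no-effect control and ±100 the full control effect; compound concentration not given in the record; the text of the record puts the active cut at -80%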
Target sequence (Q9GZU1 whole entry, looked up): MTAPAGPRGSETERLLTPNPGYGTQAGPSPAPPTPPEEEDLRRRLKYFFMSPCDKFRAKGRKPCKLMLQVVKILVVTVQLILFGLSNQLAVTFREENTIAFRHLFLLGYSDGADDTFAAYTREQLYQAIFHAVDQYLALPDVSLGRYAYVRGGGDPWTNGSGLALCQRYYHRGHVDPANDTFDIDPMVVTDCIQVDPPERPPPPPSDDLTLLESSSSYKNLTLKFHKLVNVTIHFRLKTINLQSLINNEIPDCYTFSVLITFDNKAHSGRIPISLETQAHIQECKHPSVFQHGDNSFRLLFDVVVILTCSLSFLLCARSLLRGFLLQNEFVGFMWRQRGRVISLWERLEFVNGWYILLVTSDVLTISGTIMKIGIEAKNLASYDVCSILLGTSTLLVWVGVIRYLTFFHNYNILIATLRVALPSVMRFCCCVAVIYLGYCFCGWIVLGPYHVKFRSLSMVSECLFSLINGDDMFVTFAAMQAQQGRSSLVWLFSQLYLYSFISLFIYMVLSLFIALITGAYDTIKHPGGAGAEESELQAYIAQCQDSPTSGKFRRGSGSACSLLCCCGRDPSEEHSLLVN
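Tet-induced TRPML1-DL cells loaded with Ca8 no-wash calcium dye were read kinetically on FDSS. Compound addition was followed by EC80 agonist 54-4 (4 uM final); inhibition was read over 110 s.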
TRPV1 potentiator: human TRPV1 potentiation; Q8NER1; potentiation, % at 8.33 µM; TRPV1-expressing cells, Fluo-8 calcium influx, capsaicin EC20 potentiation; host cell line not named in the record; control for the full effect not named in the record; 0.02% of 320,000 active; active means potentiation above 80%; inconclusive means 30% to 80%; inactive means below 30%; further: 0% is about no effect
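Fluo-8 calcium influx in TRPV1-expressing cells, kinetic read (ex 480/em 520 nm). Compound added and read 3 min for agonist activity, followed by capsaicin at EC20 final and 2 min further read for enhancement.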
TRPML1 agonist: activates the human TRPML1 channel. Q9GZU1. TRPML1-expressing cells, Ca2+ dye fluorescence, FDSS; host cell line not named in the record; reference of the full effect not given here. activation, % (no concentration beside the values). 0.12% of 410,000 active; in the data active = activation above about 50%; inconclusive = about 30% to 50%; inactive = below about 30%; further: 0% is about no effect; the text of the record puts the active cut at 80%
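Cells: TRPML1-DL, 1X Tet inducer, ~16 h at 37 degrees C/5% CO2. Dye: ABD Ca8 no-wash + quencher, 45-90 min RT. Read: 10 s baseline, compound add, 110 s agonist phase; 54-4 EC80 (4uM final), 110 s antagonist phase.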
An asterisk follows results filed as active; ? = inconclusive; . = not tested or not shown; & = joins results of further samples; [ ] = remark or other dose.

SMILES | ClpP mod | Sfp inh | PINK1 expr mod | Menin-MLL FL inh | TRPML1 inh | TRPV1 potentiator | TRPML1 agonist
O=C(CN(c1cccc(Cl)c1)S(=O)(=O)c1ccc(Cl)cc1)N1CCc2ccccc2C1 | -3.3% | -1% | 0.6% | 3.2 | 3 | 0 | -1.7
CC(=O)c1cccc(NS(=O)(=O)N2CCOCC2)c1 | 1.0% | 9% | -0.7% | . | 8 | 6 | 0.6
O=C(NCCc1c[nH]c2ccccc12)/C(=C\c1cccnc1)NC(=O)c1ccco1 | -1.7% | 6% | -1.2% | 0.4 | -18 | 2 | 0.1
COc1cc(NC(=O)CCNC(=O)Cn2ccc3ccccc3c2=O)cc(OC)c1OC | -0.7%&-6.7% | 17% | 3.7%&0.0% | 9.1 | 1&-4 | 1 | -1.3&-0.7
CC(=O)O[C@H]1c2ccccc2-c2ccccc2[C@@H]1OC(C)=O | 0.4% | 2% | 1.2% | -2.8 | -9 | -25 | 0.4
COc1ccc(-c2cc(C(=O)Nc3ccc(C)c(C)c3)no2)cc1 | 4.5% | 12% | 11% | -13 | -1 | 6 | 1.2
O=C(O)c1cocc1C(=O)O | -2.1% | . | 0.8% | . | 10 | . | 0.6
O=C(Nc1cccnc1)c1coc(=O)c2ccccc12 | 63% | 8% | -1.0% | -0.6 | 16 | ? | -0.4
O=C(O)c1cccc(NC(=S)NC(=O)c2ccc(-c3ccc(Cl)cc3)o2)c1 | . | ? | 0.0% | -0.8 | 25 | 8 | 0.7
Cc1noc(C)c1S(=O)(=O)N1CCCC(C(=O)NCc2ccccc2Cl)C1 (configuration not stated) | 2.7% | 11% | 3.0% | -2.5 | -3 | -5 | -0.5
COc1ccc(C(CNC(=O)COc2cc(C)ccc2Cl)N2CCCCC2)cc1 (configuration not stated) | . | . | ? | . | 16 | -9 | 1.5
O=C(c1ccccc1Cl)N1CCN(c2ccccn2)CC1 | ? | 8% | -0.4% | 1.0 | -18 | -3 | -0.2
O=C(Cc1ccsc1)Nc1cc(F)ccc1F | . | 12% | 0.7% | 5.8 | 3 | -11 | -0.8
CSCCC(NS(=O)(=O)c1ccccc1)C(=O)OCc1cc(=O)oc2cc(O)ccc12 (configuration not stated) | 321% | . | -1.1% | . | -2 | -4 | 1.0
COc1ccc(NC(=O)c2ccc3c(=O)n4nc(Nc5ccccc5C)sc4nc3c2)cc1 | -1.9% | . | 0.0% | . | 14 | . | 0.2
Cn1c(CNc2ccc(Cl)cc2)nnc1SCc1ccccc1 | -2.5% | 18% | -2.1% | 1.2 | 22 | -3 | 0.3
Cc1ccc(N2C(=O)C(Cl)=C(NCCO)C2=O)c(C)c1 | -0.1% | -5% | -1.3% | 1.6 | -4 | -15 | 0.0
Nc1nc(-c2ccccc2)c(CCCOc2ccc([N+](=O)[O-])cc2)c(=O)[nH]1 | -4.8% | . | 1.7% | . | -1 | . | 0.3
O=C(CSc1nnc(SCc2ccccc2)s1)N/N=C/c1c[nH]c2ccccc12 | . | ? | 10% | -4.1 | 22 | 2 | -0.4
COc1ccc(NC(=S)NC(=O)Cc2ccccc2)cc1 | 1.4% | 9% | 2.4% | -0.5 | -12 | 19 | 0.1
COc1ccc(-c2csc(NC(=O)CSCc3c(C)noc3C)n2)cc1OC | -1.6% | -6% | 1.3% | . | 8 | 0 | 1.4
COc1ccc(N2CCN(C(CNS(=O)(=O)c3cc(F)ccc3F)c3cccnc3)CC2)cc1 (configuration not stated) | -1.9% | 9% | 0.9% | 0.4 | 1 | -1 | -1.3
CCOc1ccc(-n2c(=O)c3c4c(sc3n(CC(=O)NCC3CCCO3)c2=O)CCC4)cc1 (configuration not stated) | 2.7% | 17% | 0.6% | 3.3 | 8 | ? | 1.1
COc1ccc(OC)c(NC(=S)NCc2ccc(S(N)(=O)=O)cc2)c1 | . | -12% | 2.5% | 0.0 | 10 | -23 | -0.6
O=CNc1cc(-c2ccc(C(=O)NC3CC3)cc2)cn2c(-c3ccc(F)cc3)cnc12 | ? | . | 0.6% | . | -2 | . | 0.3
Nc1ccc(Cc2nc3cc4ccccc4cc3[nH]2)cc1 | 0.3% | 12% | 3.0%[38.3 µM] | -0.1 | 36 | 7 | -0.4
Cc1cc(C)n2cc(CSc3nnnn3-c3ccccc3C)nc2n1 | ? | 4% | -1.7% | 1.0 | -1 | -6 | 0.1
Nc1cc2c(cc1Br)-c1ccc(F)cc1C2=O | . | . | 4.4% | . | 8 | . | 0.8
Cc1cccc(-n2c(O)c(C=Nc3ccccc3-c3n[nH]c(=S)[nH]c3=O)c3ccccc3c2=O)n1 | 1.4% | -3% | 2.0% | 1.1 | -11 | 6 | 1.2
O=C1CCCN1CCCN1C(=O)N[C@@H](Cc2ccccc2)C1=O | 3.5% | 4% | -1.4% | -0.6 | -3 | 10 | -0.8
COc1ccc(CNC(=O)c2cccc(NC(=O)N3CCSc4ncccc43)c2)cc1 | ? | . | -0.8% | . | 1 | . | 1.2
Cc1ccnc2nc(C(=O)OCC(=O)NCCc3ccccc3)nn12 | 7.0% | 0% | -1.3% | 9.9 | -14 | 1 | 0.4
Cc1cc(NS(=O)(=O)c2ccc(NC(=O)CSc3nnc(-c4ccco4)n3C)cc2)nc(C)n1 | -0.5% | -3% | -1.7% | . | 17 | 1 | -0.3
CCc1cc2c(NC3CCCC3)ncnc2s1 | -1.9% | -7% | 1.8% | 0.3 | 17 | -18 | 2.4
CCOc1cccc2sc(N(CCCN(C)C)C(=O)c3ccc(S(=O)(=O)N4CCc5ccccc5C4)cc3)nc12 | 7.3% | -29% | 8.9% | 4.4 | 11 | -22 | -0.1
CCOC(=O)Cc1csc(/N=C/c2c(O)n(-c3ccc(C)c(C)c3)c(=O)c3ccccc23)n1 | 3.1% | 14% | -2.0% | 7.0 | -11 | 5 | -0.3
Cc1ccc(S(=O)(=O)N(C)c2ccc(OCC(=O)OCc3nnc(-c4ccccc4)o3)cc2)cc1 | -3.3% | . | 5.6% | . | -7 | . | 1.7
N#C/C(=C(/O)CN1C(=O)c2ccccc2C1=O)c1nc2ccccc2[nH]1 | 1.1% | -3% | 0.8% | 5.5 | -12 | 20 | 1.0
CCC1(CC)C(=O)C(C)(C)C(=O)OC1c1cccs1 (configuration not stated) | 28µM* | ? | 4.0% | -2.7 | 17 | -8 | 0.1
CCn1c(SCC(=O)NCCOc2ccccc2)nc2ccccc2c1=O | -7.8% | 16% | -1.6% | -2.0 | -12 | -10 | -1.7
COc1ccc2oc(=O)cc(-c3cc4cccc(OC)c4o3)c2c1 | -1.1% | -1% | 5.0% | 1.7 | -7 | -7 | 0.0
CCOC(=O)c1cc(NC(=O)/C=C\C(=O)O)ccc1Cl | . | -1% | -0.6% | 6.5 | 8 | -5 | 0.0
CN(C)c1cccc(C(=O)N(Cc2ccccc2)Cc2ccccc2)c1 | ? | 7% | 0.7% | 8.1 | -3 | -8 | 1.2
COc1ccc(CCNc2ncnc3nc[nH]c23)cc1OC | 0.9% | 13% | 2.1% | 1.2 | -5 | -4 | -0.8
COc1ccc(CCNC(=O)c2coc3ccccc3c2=O)cc1 | . | 11% | -0.4% | -2.0 | 6 | 4 | -0.3
CC1=NN(C(N)=S)C(=O)C1N=Nc1ccc(O)cc1 (configuration not stated) | . | 14µM* | 0.7% | 4.5 | -25 | -8 | -0.5
O=C(CSc1ccccn1)Nc1nonc1[N+](=O)[O-] | -0.5% | 45µM* | -2.4% | . | -20 | ? | 3.0
O=C(c1cccs1)c1coc2ccc(O)cc12 | -1.7% | 6% | -0.2% | -2.0 | 26 | 5 | 1.0
C/C=C/Cn1c(N(C)Cc2ccccc2)nc2c1c(=O)[nH]c(=O)n2C | 0.1% | -5% | 0.8% | 1.1 | -18 | 6 | -1.1
COc1ccc2[nH]cc(C(O)CN3CCN(c4ccccc4)CC3)c2c1 (configuration not stated) | . | 0% | . | 0.8 | . | -1 | .
COc1cccc(-n2nnc3c(sc4nc(C)cc(C)c43)c2=O)c1 | -24% | . | -0.4% | . | -12 | . | 1.2
Cc1ccc(C(C)NC(=O)c2ccco2)cc1 (configuration not stated) | -2.2% | 1% | -6.1%[38.3 µM] | 0.5 | -8 | -1 | -0.9
Cc1ccccc1-c1ccc2ncnc(N(C)Cc3ccco3)c2c1 | . | ? | 1.2% | 4.7 | . | . | .
O=C1N2c3ccccc3CCc3cccc(c32)C1(O)C(F)(F)F (configuration not stated) | -0.2% | 9% | 2.2%[38.3 µM] | -2.3 | -4 | 7 | -0.6
O=c1[nH]ncc(N/N=C\c2cccnc2)c1Cl | -0.9% | 15% | 1.2% | 1.4 | 9 | -2 | -0.7
COc1cc(NC(=O)c2cc([N+](=O)[O-])ccc2NC(=O)CNC2CCCCC2C)cc(OC)c1 (configuration not stated) | 1.3% | 12% | 0.7% | -1.5 | 56 | 9 | 1.1
O=C(CO/N=C/c1ccccc1OC(F)F)NC1CCCC1 | . | 12% | 0.0% | 1.1 | -7 | 2 | 1.7
CC(=O)c1cccc(NC(=O)c2nc(-c3ccccc3)n(-c3cccc(C)c3)n2)c1 | 0.9% | . | -1.7% | . | -13 | . | 1.3
O=C(CN1CCN(c2ccccc2F)CC1)c1ccc2cc[nH]c2c1 | 3.8% | -11% | 1.3% | 7.4 | 39 | . | 0.3
Cc1cc(Br)ccc1NC(=O)COC(=O)c1ccccc1OCC(=O)N(C)C | -2.1% | . | 2.3% | . | . | . | -1.0
Later entries.
SMILES | ClpP mod | Sfp inh | PINK1 expr mod | Menin-MLL FL inh | TRPML1 inh | TRPV1 potentiator | TRPML1 agonist
CC(C)CN(CC(C)C)S(=O)(=O)N1CCC(C(=O)NCCN2CCOCC2)CC1 | 0.9% | 14% | 1.5%[38.3 µM] | -1.0 | -1 | -7 | 2.2
Cc1nc(C(F)(F)F)ccc1C(=O)N1CCC(C)(C(=O)NS(=O)(=O)C2CC2)C1 (configuration not stated) | 0.5% | . | 0.6% | . | . | . | -0.5
O=C(CNC(=S)NC(=O)c1cccs1)c1ccccc1 | 0.3% | -26% | 0.2% | 5.3 | -5 | 14 | -1.6
N#CCc1nc(CSc2nc3ccccc3o2)cs1 | 0.6% | 3% | . | 0.3 | 14 | 15 | 0.0
